PKD1 kinase inh: inhibitors of human PKD1 kinase | Q15139 | PKD1 kinase fluorescence polarization assay | inhibition, %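 (about 10 µM by stock and volumes)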 | 200,000 compounds, 0.056% hits;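 active = inhibition of 50% or more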;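 note: controls were vehicle for no effect and a reference inhibitor for full effect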
Target sequence (Q15139 whole entry, looked up): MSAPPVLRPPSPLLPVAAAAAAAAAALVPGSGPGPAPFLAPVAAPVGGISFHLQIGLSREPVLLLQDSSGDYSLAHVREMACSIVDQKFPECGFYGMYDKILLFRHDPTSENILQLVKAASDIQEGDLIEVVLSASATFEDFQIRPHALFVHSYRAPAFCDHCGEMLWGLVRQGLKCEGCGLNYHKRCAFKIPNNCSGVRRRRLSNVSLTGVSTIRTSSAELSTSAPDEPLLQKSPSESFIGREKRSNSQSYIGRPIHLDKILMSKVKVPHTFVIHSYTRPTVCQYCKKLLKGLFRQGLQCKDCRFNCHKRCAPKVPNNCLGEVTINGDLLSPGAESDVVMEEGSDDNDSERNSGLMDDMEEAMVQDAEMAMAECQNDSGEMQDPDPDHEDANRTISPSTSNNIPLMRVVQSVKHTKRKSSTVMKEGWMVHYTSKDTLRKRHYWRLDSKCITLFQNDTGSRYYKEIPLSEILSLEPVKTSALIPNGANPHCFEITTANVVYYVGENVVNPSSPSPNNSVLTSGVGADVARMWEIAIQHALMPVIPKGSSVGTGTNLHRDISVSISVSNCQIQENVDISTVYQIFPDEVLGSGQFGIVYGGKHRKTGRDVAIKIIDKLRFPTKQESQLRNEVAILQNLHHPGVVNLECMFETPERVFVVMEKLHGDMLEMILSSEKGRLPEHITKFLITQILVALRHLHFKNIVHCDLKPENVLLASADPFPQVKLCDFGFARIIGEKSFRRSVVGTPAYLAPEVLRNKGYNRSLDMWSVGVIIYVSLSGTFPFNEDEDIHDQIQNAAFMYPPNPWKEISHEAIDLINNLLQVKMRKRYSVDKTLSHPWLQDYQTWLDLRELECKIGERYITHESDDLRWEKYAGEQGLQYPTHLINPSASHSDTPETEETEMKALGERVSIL
RGS16-Gao: modulates binding between human RGS16 and Galphao. 220,000 compounds, 0.38% hits. bead-based flow cytometry RGS16-Galphao binding, fluorescence; actives lie on both sides. binding response (% of control), % at 10 µM;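 active = below 25% or above 175%, edge rows of some plates excepted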;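 note: Galphao activated by GDP with aluminum fluoride before binding; 100% = wells without compound and 0% = beads without RGS; some results beyond the cut were filed as inactive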
HSV replic up: increases HSV replication in cells | maximum fold increase | 220,000 compounds, 0.005% hits | HSV replication augmentation in cells, fold increase | AID 1956;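 active = peak rise of 1.5-fold or more in the series; tested in PC3 cells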;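 note: first round at 10 µM; read as green reporter fluorescence; hits show the peak of a series up to 25 µM; 1 = signal of infected wells without compound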
Insulin prom inh: TRM-6 insulin promoter activity inhibition | TRM-6 cells (human fetal islet line), insulin promoter-eGFP reporter, imaging; reporter expression induced with tamoxifen | inhibition, % at 2 µM | 130,000 compounds, 0.9% hits;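 active = inhibition above the mean plus 3 SD, with well images judged a real hit on visual review, cut at about 60% in these data, passing the limit was not always enough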
GALR2 ag: GALR2 (human) receptor agonism; O43603; GALR2-expressing cells, agonist activation read-out; activation, %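 (tested at 5 µM)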; 140,000 compounds, 0.48% hits; AID 803;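 active = above mean plus 3 SD of all compounds, about 5% in these data, not always enough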;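 note: 0% = vehicle buffer wells and 100% = reference agonist at full effect; tested in CHO reporter cells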
Insulin prom inh cell count: second read-out of Insulin prom inh, no call of its own (marks repeat the call); normalized cell count, %; measured here: cell count, toxicity; reference of the scale not given here;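 cells exposed to compound for 48 h; stained nuclei by imaging scaled within each plate; lower means fewer cells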
HSV replic up primary fold: also measured in HSV replic up; calls as there; fold increase; compound at 10 µM; measured here: primary screen fold increase 10 uM; tested in PC3 cells;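 GFP signal in the first replicate; 1 = infected wells without compound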
* marks the source's active call; other numbers are inactive results; i = inactive; x = no result given.

SMILES | PKD1 kinase inh | RGS16-Gao | HSV replic up | HSV replic up primary fold | Insulin prom inh | Insulin prom inh cell count | GALR2 ag
CC1C2=C(CCCC2=O)N(c2cccc3ccccc23)C2=C1C(=O)CCC2 | 2 | x | x | x | -16 | 70 | 2.1
COc1ccc(NC(=S)Nc2cc(-c3ccccc3)[nH]n2)cc1Cl | -6 | 101 | i | 1.2 | -46 | 117 | -3.6
Cc1ccc(S(=O)(=O)NCC(=O)N(CC(=O)NCc2ccco2)Cc2cccs2)cc1 | -2 | 91 | i | 0.95 | -49 | 129 | -3.0
CCCS(=O)(=O)N1CCC(C(=O)NCc2ccc(F)cc2)CC1 | -10 | 104 | i | 0.99 | -72 | 75 | -2.1
CCCN1CCN(C(=O)c2cc(COc3ccc4ncccc4c3)on2)CC1 | 1 | 88 | i | 0.98 | x | x | x
Cc1nc2nc(SCC(=O)N3CCOCC3)nn2c(C)c1Cc1ccccc1 | 1 | 103 | i | 0.95 | x | x | -4.2
Cc1cc(NC(=O)c2ccc(S(=O)(=O)N(C)C)cc2)no1 | -5 | 97 | i | 0.75 | -8 | 120 | -0.9
Cc1nc2cc(C(=O)O)ccc2n1-c1ccccc1 | -3 | 104 | i | 0.85 | x | x | -2.6
NNC(=O)COc1ccccc1[N+](=O)[O-] | -3 | 102 | i | 0.94 | x | x | x
O=C(CSc1nc2ccccc2c(=O)n1CC1CCCO1)N1CCN(c2ccccc2)CC1 (centres undefined) | -5 | x | i | 0.87 | 41 | 102 | -3.3
CC(OC(=O)c1cccc(S(=O)(=O)Nc2ccccc2F)c1)C(=O)NCc1ccc2c(c1)OCO2 (centres undefined) | 4 | 102 | i | 1 | 19 | 100 | 0.2
CCc1c(C)nc(SCC(N)=O)c(C#N)c1C | 4 | 107 | i | 0.9 | x | x | -0.1
O=C(CSc1nnc2ccccn12)c1ccc(OC(F)F)cc1OC(F)F | -8 | 104 | i | 0.86 | x | x | -5.6
CS(=O)(=O)N(CC(=O)Nc1ccc(S(=O)(=O)N2CCCC2)cc1)c1ccccc1F | -8 | 104 | i | 0.98 | -14 | 124 | -0.1
CO/N=C/CC(=O)c1ccc(-c2ccccc2)cc1 | -4 | 97 | i | 0.79 | 49 | 106 | x
CC1CCCN(CCC(=O)Nc2ccccc2)C1 (centres undefined) | 0 | 103 | i | 1 | x | x | x
Cc1[nH]c2ccccc2c1CCCO | x | 98 | i | 1.1 | x | x | x
CC(=O)c1c(C(C)=O)c(C)n(CCCCn2c(C)c(C(C)=O)c(C(C)=O)c2C)c1C | -14 | x | x | x | -150 | 108 | -2.0
O=C1CC(N(Cc2ccco2)C(=O)Nc2ccc(F)cc2)C(=O)N1c1ccc(F)cc1 (centres undefined) | -6 | 98 | i | 1.1 | -42 | 174 | -0.2
CCn1cc(C(=O)N2CCN(c3ccc(OC)cc3)CC2)c2cc(OC)c(OC)cc2c1=O | 2 | 97 | i | 1 | x | x | x
Cc1ccc(S(=O)(=O)NC(N)=NCCc2ccccc2)cc1C | -4 | 96 | i | 1 | 0 | 101 | -2.0
COc1ccc(CC(=O)Nc2cccc(-c3nnc(-c4ccccc4)o3)c2)cc1OC | -8 | 101 | i | 0.87 | -5 | 116 | -0.7
COCc1cccc(N2C(=O)CC(C3C=C(C)C4C(=O)N(c5cccc(COC)c5)C(=O)C4C3)C2=O)c1 (centres undefined) | -8 | 102 | i | 0.88 | -21 | 51 | x
OCCN(Cc1ccccc1)Cc1ccc(Cl)cc1 | 10 | 93 | i | 1 | -37 | 99 | -1.8

4 compounds from above, sorted by their value in PKD1 kinase inh, falling:
smiles	PKD1 kinase inh
OCCN(Cc1ccccc1)Cc1ccc(Cl)cc1	10
CCn1cc(C(=O)N2CCN(c3ccc(OC)cc3)CC2)c2cc(OC)c(OC)cc2c1=O	2
CO/N=C/CC(=O)c1ccc(-c2ccccc2)cc1	-4
O=C(CSc1nnc2ccccn12)c1ccc(OC(F)F)cc1OC(F)F	-8

Other records
SMILES | PKD1 kinase inh | RGS16-Gao | HSV replic up | HSV replic up primary fold | Insulin prom inh | Insulin prom inh cell count | GALR2 ag
Cc1cc([N+](=O)[O-])nn1CC(=O)N1CCN(Cc2ccccc2)CC1 | -1 | 99 | i | 1 | x | x | x
CCOC(=O)c1sc(NC(=O)COC(=O)CNC(=O)C2CCCCC2)c(C(=O)OCC)c1C | -4 | 93 | i | 0.99 | 4 | 117 | -0.3
O=C(COC(=O)c1cc2ccccc2oc1=O)Nc1cccc(S(=O)(=O)N2CCCCCC2)c1 | -16 | 103 | i | 0.89 | 31 | 110 | -1.1
O=C(NNC(=O)C1CCCCC1)c1ccco1 | -4 | 92 | i | 0.89 | x | x | x
Cn1c(C(=O)NC2CCCC2)cc2c(=O)n(C)c3ccccc3c21 | 6 | 103 | i | 1 | x | x | -1.6
O=C(O)CNC(=S)N(Cc1ccco1)Cc1ccccc1Cl | 0 | 103 | i | 0.93 | x | x | -0.6
O=C(NCC1CCCO1)C1c2ccccc2C(=O)N1Cc1ccc2c(c1)OCO2 (centres undefined) | -6 | 102 | i | 1 | -18 | 51 | -1.5
COC(=O)C1=C(N)Oc2cc(C)n(Cc3cccnc3)c(=O)c2C1c1ccccc1OC (centres undefined) | -12 | 102 | i | 0.94 | -26 | 120 | -1.7
COc1cccc(-c2nc(N3CCN(C)CC3)c3ccccc3n2)c1O | x | 102 | i | 0.66 | x | x | x
CC(=O)c1c(OC(=O)c2ccccc2Br)ccc2c(C)cc(=O)oc12 | -7 | 103 | x | x | -23 | 107 | -1.3
CCOc1ccc(NC(=O)Nc2ccccc2C(N)=O)cc1 | -7 | 101 | i | 0.88 | x | x | x
CC1=NN(S(=O)(=O)c2ccc(C)cc2)C(=O)c2ccccc2O1 | x | 98 | i | 0.9 | x | x | x

Continued (2 carried over from the part before).
SMILES | PKD1 kinase inh | RGS16-Gao | HSV replic up | HSV replic up primary fold | Insulin prom inh | Insulin prom inh cell count | GALR2 ag
CCOc1ccc(NC(=O)Nc2ccccc2C(N)=O)cc1 | -7 | 101 | i | 0.88 | x | x | x
CC1=NN(S(=O)(=O)c2ccc(C)cc2)C(=O)c2ccccc2O1 | x | 98 | i | 0.9 | x | x | x
O=C(COc1ccccc1F)Nc1nnc(-c2ccncc2)s1 | 3 | 101 | i | 0.97 | -11 | 103 | -0.9
CC(/C=N/n1c(-c2ccc(C)cc2)n[nH]c1=S)=C\c1ccco1 | 9 | 105 | i | 1.1 | x | x | -0.5
Cc1c(NC(=O)Cn2ccc([N+](=O)[O-])n2)c(=O)n(-c2ccccc2)n1C | -12 | 108 | i | 1.1 | x | x | -1.4
Cc1ccc(CC2SC(=Nc3ccccc3)N(c3ccccc3)C2=O)cc1 (centres undefined) | -5 | 103 | i | 0.99 | -24 | 142 | -0.6
CCOCCCNC(=S)N1CCCN(c2nc3cc(C)c(C)cc3cc2C#N)CC1 | 3 | 101 | x | x | x | x | x
C/C(CC(=O)Nc1cccc(F)c1)=N\NC(=O)C(=O)NC1CCCCC1 | 2 | 58 | i | 1 | 52 | 99 | -0.3
COc1ccc(N2C(=O)C(CC(=O)Nc3ccccc3)N(Cc3ccccn3)C2=S)cc1 (centres undefined) | 5 | 101 | i | 0.99 | -40 | 106 | x
Cc1nc2scc(-c3ccc(Cl)cc3)c2c(=O)o1 | 0 | 102 | i | 0.86 | -3 | 115 | -0.4
CCN(Cc1nc2ccccc2c(=O)[nH]1)Cc1cc(=O)oc2cc(OC)ccc12 | -2 | 116 | i | 1.1 | 9 | 118 | -2.0
Cn1c(C(=O)NCCN2CCN(Cc3ccccc3)CC2)cc2c(=O)n(C)c3ccccc3c21 | x | 106 | i | 1.1 | x | x | x
CC(C)CNC1=CC(=O)CC(c2ccco2)C1 (centres undefined) | -6 | 93 | i | 0.88 | x | x | -3.3
COc1cc(N(C)C)c([N+](=O)[O-])cc1C(=O)NC(C)CNc1ccc([N+](=O)[O-])cc1Cl (centres undefined) | 2 | 101 | i | 0.91 | 6 | 117 | -1.4

Structures shown so far containing a cyano group, in the order listed:
SMILES | PKD1 kinase inh | RGS16-Gao | HSV replic up | HSV replic up primary fold | Insulin prom inh | Insulin prom inh cell count | GALR2 ag
CCc1c(C)nc(SCC(N)=O)c(C#N)c1C | 4 | 107 | i | 0.9 | x | x | -0.1
CCOCCCNC(=S)N1CCCN(c2nc3cc(C)c(C)cc3cc2C#N)CC1 | 3 | 101 | x | x | x | x | x

Carrying on:
SMILES | PKD1 kinase inh | RGS16-Gao | HSV replic up | HSV replic up primary fold | Insulin prom inh | Insulin prom inh cell count | GALR2 ag
CNC(=O)c1ccccc1NC(=O)c1ccc(C)c(S(=O)(=O)N2CCCCC2)c1 | 2 | 146 | i | 0.82 | -25 | 117 | 0.0
CCN(CC)c1ccc(NC(=O)Cn2nnc(-c3cccc(OC)c3OC)n2)c(C)c1 | 5 | 100 | i | 0.81 | 34 | 105 | -5.8
CC1CC(NC(=O)Cc2ccc(Br)cc2)CC(C)(C)C1 (centres undefined) | 12 | 101 | i | 0.91 | 50 | 130 | -0.8
COCCn1c(SC(C(=O)Nc2cc(C)ccc2OC)c2ccccc2)nnc1-c1ccc(Cl)cc1 (centres undefined) | 1 | 105 | i | 0.77 | x | x | -0.8
COc1cccc(C2CC(C(F)(F)F)n3ncc(C(=O)Nc4c(C)n(C)n(-c5ccccc5)c4=O)c3N2)c1 (centres undefined) | -7 | 114 | i | 1 | -73 | 113 | -1.8
COC(=O)c1cccc(NC(=O)CCSc2ccc(Cl)cc2)c1C | 6 | 102 | i | 0.91 | -3 | 109 | -1.9
CCOc1ccc(C(=O)Nc2cccc(-c3ccc4nncn4n3)c2)cc1 | 6 | 91 | i | 0.82 | x | x | x
Cc1cc(N/N=C/c2ccccc2F)c2ccccc2n1 | 5 | 105 | i | 0.93 | 43 | 102 | x
COCc1nnc(NC(=O)c2cc(C(=O)OC)cc([N+](=O)[O-])c2)s1 | -8 | 111 | i | 1 | -19 | 130 | 0.4
O=c1oc2c(CN3CCOCC3)c(O)ccc2c2c1CCC2 | 5 | 100 | i | 0.88 | x | x | -2.0
O=C(CN1CCN(Cc2ccc(F)cc2Cl)C1=O)NCCCN1CCOCC1 | -3 | 98 | i | 0.9 | x | x | -2.4
Cc1ccc(NC(=S)NC(NC(=O)N(C)C)C(Cl)(Cl)Cl)cc1 (centres undefined) | -14 | 45 | i | 1.1 | 19 | 117 | 0.5
CC1=C(C(=O)Nc2ccccc2C)C(c2cccnc2)n2nc(CCCO)nc2N1 (centres undefined) | -5 | 88 | i | 1.1 | -100 | 107 | -2.2
CNS(=O)(=O)c1cc(N)ccc1C | -8 | 100 | i | 1 | 33 | 114 | x
O=C(NCCC1=CCCCC1)C(=O)NCc1ccccc1Cl | 0 | 101 | i | 1.1 | x | x | -2.1
Clc1ccccc1Cn1nc(-c2ccccc2)nc1-c1ccccc1 | -1 | 103 | i | 1.1 | x | x | -0.2
CC(C)(C)C(=O)NC1=NN(c2c(Cl)cc(Cl)cc2Cl)C(=O)C1 | -1 | 56 | i | 0.91 | -7 | 88 | x
COc1ccc(NC(=O)C2CC(=O)N(C(C)C)C2)cc1 (centres undefined) | -4 | 97 | i | 1 | x | x | -1.2
CCOc1ccccc1N1CCN(S(=O)(=O)c2ccc(Cl)s2)CC1 | -3 | 100 | i | 1 | 5 | 109 | 1.2
CCCCOCC1CN(c2ccccc2)C(=O)CS1 (centres undefined) | -3 | 93 | i | 0.91 | -39 | 224 | 1.4
Clc1cccc(N/N=C(\Cc2nc3ccccc3[nH]2)c2ccccc2)c1 | -3 | 103 | i | 1.3 | 14 | 126 | -0.2

Assay outcomes from PubChem BioAssay.
